TRPV1 PAM = potentiators of human vanilloid receptor 1 (TRPV1) | TRPV1-expressing cells, Fluo-8 calcium influx, capsaicin EC20 potentiation; host cell line not named in the record; control for the full effect not named in the record | potentiation, % at 8.33 µM | 320,000 tested, 0.02% active | AID 540277; active means potentiation above 80%; inconclusive means 30% to 80%; inactive means below 30%; further: 0% is about no effect
Target sequence (Q8NER1 whole entry, looked up): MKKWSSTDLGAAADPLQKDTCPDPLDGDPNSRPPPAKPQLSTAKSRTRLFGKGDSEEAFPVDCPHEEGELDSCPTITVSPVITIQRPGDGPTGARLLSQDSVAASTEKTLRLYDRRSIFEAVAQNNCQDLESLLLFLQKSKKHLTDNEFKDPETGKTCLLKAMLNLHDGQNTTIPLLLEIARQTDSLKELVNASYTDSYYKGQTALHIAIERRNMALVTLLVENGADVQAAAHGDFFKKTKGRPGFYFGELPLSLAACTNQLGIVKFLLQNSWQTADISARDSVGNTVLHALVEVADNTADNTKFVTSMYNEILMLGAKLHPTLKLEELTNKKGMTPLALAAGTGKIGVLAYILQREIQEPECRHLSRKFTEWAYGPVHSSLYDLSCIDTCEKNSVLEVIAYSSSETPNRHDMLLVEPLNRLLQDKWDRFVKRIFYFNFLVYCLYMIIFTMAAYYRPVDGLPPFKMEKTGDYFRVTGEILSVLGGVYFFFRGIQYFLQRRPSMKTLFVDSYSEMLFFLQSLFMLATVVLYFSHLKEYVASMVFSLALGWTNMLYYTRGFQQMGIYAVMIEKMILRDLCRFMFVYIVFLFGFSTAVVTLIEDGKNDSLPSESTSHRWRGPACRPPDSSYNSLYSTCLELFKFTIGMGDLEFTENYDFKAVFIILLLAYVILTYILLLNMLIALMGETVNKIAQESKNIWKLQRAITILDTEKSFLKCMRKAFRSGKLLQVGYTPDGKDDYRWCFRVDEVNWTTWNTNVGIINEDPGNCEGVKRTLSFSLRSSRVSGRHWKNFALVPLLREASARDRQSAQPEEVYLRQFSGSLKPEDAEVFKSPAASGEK
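TRPV1-expressing cells were cultured overnight at 35.5C and loaded with Fluo-8 calcium dye for 40 to 90 min at room temperature. After a 10 s baseline, compound was added and calcium influx was read kinetically for 3 min (ex 480/em 520 nm).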
TRPML1 ag = agonists of human TRPML1 channel. Q9GZU1. TRPML1-expressing cells, Ca2+ dye fluorescence, FDSS; host cell line not named in the record; reference of the full effect not given here. activation, % (concentration not given with the values). 410,000 tested, 0.12% active. AID 624414; in the data active = activation above about 50%; inconclusive = about 30% to 50%; inactive = below about 30%; further: 0% is about no effect; the text of the record puts the active cut at 80%
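Calcium fluorescence on an FDSS kinetic reader gave the read-out. Tet-induced TRPML1-DL cells were plated overnight, dye-loaded (Ca8 with quencher, 45-90 min, room temperature, dark), then read 110 s after compound addition, and again 110 s after 4uM final 54-4 (EC80).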
TRPML1 blocker = human mucolipin-1 channel inhibition; 390,000 tested, 0.02% active; TRPML1-inducible cells, Ca2+ dye fluorescence, FDSS; active compounds read low; inhibition of EC80 agonist-evoked calcium signal; activity change, negative = inhibition, % (concentration not given with the values); Q9GZU1; in the data active means activity change below about -50%; inconclusive means about -30% to -50%; inactive means above about -30%;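 further: stimulus is agonist 54-4 at its EC80 concentration; on the % scale 0 is the no-effect control and ±100 the full control effect; the text of the record puts the active cut at -80%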
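Tet-induced TRPML1-DL cells loaded with Ca8 no-wash calcium dye were read kinetically on FDSS. Compound addition was followed by EC80 agonist 54-4 (4 uM final); inhibition was read over 110 s.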
Six1-Eya2 inh = Six1/Eya2 interaction inhibition; Q15475+O00167; 360,000 tested, 0.56% active; activity change, % (no concentration beside the values); AlphaScreen GST-Six1/His-Eya2 binding, biochemical; active compounds read low; control for the full effect not named in the record; in the data active = activity change below about -65%; inconclusive = about -30% to -65%; inactive = above about -30%; further: on the % scale 0 is the no-effect control and ±100 the full control effect
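Compounds are tested against tagged Six1 and Eya2 proteins bridged by glutathione donor and nickel acceptor beads; after a one-hour incubation at 37 °C without light, AlphaScreen emission is recorded.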
D2 potentiator = human D2 receptor positive allosteric modulation | P14416 | DiscoveRx D2 beta-arrestin cells, luminescence, 90 min; 100% = 57 uM dopamine signal | potentiation, % (no concentration beside the values) | 360,000 tested, 0.23% active | AID 624464; active = potentiation of 50% or more; inconclusive = 30% to 50%; inactive = 30% or less;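 further: compound concentration not given in the record; tested on top of an EC20 dose of dopamine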
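D2 cells co-treated with compound plus 50 nM dopamine (EC20) for 90 min at 37 deg C to detect potentiation. Beta-arrestin recruitment was read as enzyme-fragment luminescence after 1 h at ambient temperature. Full response was set by 57 uM dopamine.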
CtBP-E1A inh = inhibitors of CtBP/E1A interaction; 340,000 tested, 0.49% active; AlphaScreen GST-E1A/His-CtBP binding, 1536-well; active compounds read low; control for the full effect not named in the record; activity change, % (no concentration beside the values); in the data active means activity change below about -65%; inconclusive means about -30% to -65%; inactive means above about -30%; further: on the % scale 0 is the no-effect control and ±100 the full control effect
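Homogeneous bead-based format: GST-tagged E1A captured on glutathione donor beads, His-tagged CtBP on nickel acceptor beads; compounds precede bead addition by 2 h at 37 °C.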
* marks the source's active call; other numbers are inactive results; ? = inconclusive; . = not tested or not shown; & = joins results of further samples. Some of the compounds tested (hit frequency here may not be typical).

Second line of a record – TRPV1 PAM | TRPML1 ag | TRPML1 blocker | Six1-Eya2 inh | D2 potentiator | CtBP-E1A inh
- CCSc1nnc([C@@H](N)Cc2ccccc2)o1
→ -2 | 0.4 | -9 | 3 | -7 | 2
- CC1CCCN(C(=O)CCl)C1 (stereo not drawn)
→ -6 | 1.3 | 1 | 16 | -11 | -4
- C[C@]1(O)CC[C@H]2[C@@H]3CCC4=CC(=O)CC[C@]4(C)[C@@]3(F)[C@@H](O)C[C@@]21C
→ . | -0.2 | -3 | -3 | -1 | 2
- CCOC(=O)/C(CCCN(CC)CC)=N\O
→ -2 | -0.9 | -17 | 3 | 0 | 4
- N#Cc1ccc(NC(=O)CN2C(=O)NC3(CCCC3)C2=O)cc1Cl
→ 5 | 0.1 | 20 | 0 | -3 | 0
- O=C(NC1CN2CCC1CC2)c1ccc(-c2ccc([N+](=O)[O-])cc2)o1 (stereo not drawn)
→ -15 | -0.3 | -8 | 2 | 15 | -2
- Cn1c(O)c(/C=C2\C=Nc3ccc(Br)cc32)c(=O)n(C)c1=O
→ 0 | 1.0 | -9 | -4 | -2 | 7
- COC[C@]12CN(C)C3C4[C@H](OC)[C@H]1C3([C@@H](OC)C[C@H]2O)[C@@H]1C[C@@]2(O)[C@H](OC(=O)c3ccccc3)[C@@H]1[C@]4(OC(C)=O)[C@@H](O)[C@@H]2OC
→ . | -0.4 | 10 | 15 | -2 | 4
- CC1CN(C)C(C)(C)CC1(O)c1ccccc1 (stereo not drawn)
→ -1 | 0.8 | 12 | 2 | 0 | 5
- COC(=O)C1=C(c2ccc(F)cc2F)C[C@@H]2CC[C@H]1N2C(=O)N1CCCC1
→ -4 | 1.2 | 11 | 1 | 1 | 9
- Cc1cc(C(=O)OCC(=O)Nc2ccccc2F)c(C)n1C1CC1
→ ? | 3.5 | 0 | 0 | -22 | 2
- O=c1[nH]c(=S)n(-c2ccc(Br)cc2)c(O)c1C=Nc1ccc(N2CCOCC2)cc1
→ -2 | 5.3 | -5 | -9 | -2 | 2
- FC(F)(F)c1cccc(NC2=NCCS2)c1
→ . | 0.3 | 2 | 5 | -12 | -16
- COC(=O)C12CCc3cc(OC)ccc3C1=CC(=O)C2 (stereo not drawn)
→ . | 0.3 | -5 | -12 | -11 | -15
- C[N+](C)(C)Cc1ccccc1
→ 7 | 0.1 | 1 | 1 | -13 | 3
- Cc1ccc(/C=C2\C(=O)NC(=S)N(c3ccc(F)cc3)C2=O)s1
→ 1 | 0.4 | 34 | -14 | -2 | 1
- COC(=O)C1=C(c2ccc(OC(F)(F)F)cc2)C[C@@H]2CC[C@H]1N2C(=O)NCCc1ccccc1
→ -8 | 0.4 | 4 | 7 | -6 | 0
- COc1ccc2c(CN3CC=C(c4ccccc4)CC3)cc(=O)oc2c1
→ 5 | 0.2 | -27 | 8 | -21 | -15
- O=C1C2CCN(CC2)[C@@H]1Cc1ccc2ccccc2c1O
→ ? | 0.0 | 4 | 0 | -6 | -1
- CC1SC2(CN3CCC2CC3)NC1=O (stereo not drawn)
→ 6 | -0.3 | -14 | 5 | 7 | -7
- c1ccc2c3c([nH]c2c1)CNCC3
→ 10 | -0.4 | -8 | 0 | -9 | -7
- COC(=O)C1=C(c2cccc(OC)c2OC)C[C@@H]2CC[C@H]1N2C(=O)NCCCOC(C)C
→ . | 0.0 | -5 | 6 | 1 | 4
- CC[C@H]1C2C[C@H]3[C@@H]4N(C)c5ccccc5C45C[C@H](C2[C@H]5O)N3[C@@H]1O (stereo partly drawn)
→ 8 | -0.3 | 7 | -1 | -26 | -10
- CC1CN(O)C2CCc3c(no[n+]3[O-])C12O (stereo not drawn)
→ 5 | -0.2 | 4 | -2 | 17 | 6
- C[C@]12CCC3C(CC[C@@H]4CC(=O)CC[C@]34C)C1CC[C@@H]2O (stereo partly drawn)
→ . | -0.3 | 20 | 8 | 1 | 3
- CS(=O)(=O)c1ccc(C2=C(CNC(=O)c3ccc([N+](=O)[O-])cc3)[C@H]3CC[C@@H](C2)N3CCOc2ccccc2)cc1
→ . | 0.6 | -13 | -9 | 7 | 0
- COC(=O)C(O)(c1ccc(NC(=S)NC(=O)c2ccc(Cl)cc2Cl)cc1)C(F)(F)F (stereo not drawn)
→ -12 | 11 | 12 | -5 | -32 | -4
- O=C1CCN(C(=O)CCCn2c(=O)oc3ccccc32)CC1
→ 3 | -0.7 | 0 | 7 | -2 | 6
- COc1ccc(-c2nn(CCC#N)cc2C(=O)Nc2ccccc2)cc1OC
→ 29 | . | . | 2 | 1 | .
- Cc1cc(N(CCCl)CCCl)ccc1C=NNC(=O)Cc1cc(=O)oc2cc(O)ccc12
→ . | 4.4 | 34 | -18 | -13 | -15
- CN(C)C1(CNC(=O)Cc2ccccc2F)CCCCC1
→ -14 | 0.3 | 4 | 8 | 5 | 3
- Cc1nnc2ccc(-c3cccc(C(F)(F)F)c3)nn12
→ . | -0.2 | -26 | 2 | -5 | -5
- CCOc1ccc(-c2cc(C)[n+](CCO)c(-c3ccc(OCC)cc3)c2)cc1
→ 4 | -0.1 | 1 | 1 | -11 | -14
- CCCCCCNC(=O)N[C@@H](Cc1ccc(O)cc1)C(=O)NCCC[C@H]1CN2C(=NC[C@H]2C)N1CC1CCC1
→ ? | 3.3 | 3 | 1 | -13 | 0
- C[C@]12CCC3C(CC[C@H]4C[C@@H](O)CC[C@]34C)C1C[C@@H](O)C2=O (stereo partly drawn)
→ . | 0.3 | 8 | 9 | -11 | 9
- COCOC1CCC2C3CCC4=CC(=O)CCC4=C3C=CC12C (stereo not drawn)
→ . | -0.3 | -7 | -8 | . | 12
- CCC1(C(=O)c2ccccc2)C2c3ccccc3OC(=O)C21C(C)=O (stereo not drawn)
→ 4 | 1.6 | 17 | -3 | 4 | 8
- Cc1cc(C)cc(NC2=NCCCS2)c1
→ -1 | 0.6 | -24 | 26 | -3 | 0
- CCCN1CCC2(CC1)NC(CO)(CO)CO2
→ 4 | -0.5 | 32 | 1 | 2 | 4
- Cc1ccc(N2C(=O)NC(=O)/C(=C\C=C\c3ccco3)C2=O)cc1C
→ -6 | 3.6 | -8 | -15 | -5 | 11
- Cc1ccsc1C(=O)C1CCCN(Cc2cnc(N)nc2)C1 (stereo not drawn)
→ 12 | 0.0 | 14 | -2 | -21 | -4
- O=C(c1cc(F)ccc1F)C1CCCN(CCCc2ccccc2)C1 (stereo not drawn)
→ 7 | 0.0 | 13 | -3 | -16 | 12
- Cc1nn(Cc2ccccc2Cl)c(Cl)c1C(=O)O
→ 8 | -0.1 | 5 | 2 | -9 | 2
- Nc1ccc(S(=O)(=O)N2CCCCC2c2cccnc2)cc1 (stereo not drawn)
→ -9 | -0.7 | -3 | -1 | -5 | 0
- O=C1CC(c2ccccc2)CC(O)=C1C=NCCN1CCN(C(=O)Cc2ccccc2)CC1 (stereo not drawn)
→ -2 | -0.6 | -5 | 0 | 10 | -2
- COc1ccc2cc(C(=O)C3CCCN(C4CCOCC4)C3)ccc2c1 (stereo not drawn)
→ -13 | -0.5 | -2 | -5 | -18 | 0
- CC(=C1C(=O)c2ccccc2C1=O)N1CCN(CCN=Cc2c(O)n(C)c(=O)n(C)c2=O)CC1
→ -20 | 1.3 | -13 | 3 | 15 | 0
- CC(=O)Nc1ccc(OC(=O)N(C)C)cc1
→ 15 | 0.6 | -12 | 9 | -6 | -4
- CCOC(=O)c1nc2ccccc2c(=O)n1-c1cccc(C)c1
→ -7 | 0.9 | -8 | 10 | -13 | 4
- COc1ccc(CN(CCc2c[nH]c3ccccc23)Cc2ccc(OC)cc2)cc1
→ . | 2.1 | 6 | -19 | -23 | 5

(more compounds)
Second line of a record – TRPV1 PAM | TRPML1 ag | TRPML1 blocker | Six1-Eya2 inh | D2 potentiator | CtBP-E1A inh
- Cc1cc(/C=C2\C(=O)NC(=O)N(Cc3ccccc3)C2=O)c(C)n1C1CC1
→ 20 | -0.5 | 52 | 7 | 0 | 2
- Cn1cc(CCC(=O)N2CCC3(CC2)OCCO3)c2ccccc21
→ -15 | 0.2 | -3 | 2 | 5 | 3
- COc1cccc(O)c1CN1CCCC(C(=O)c2ccccc2SC)C1 (stereo not drawn)
→ 5 | -0.6 | -18 | -16 | -16 | -7
- NCCCP(=O)(O)CCc1ccccc1
→ -2 | 0.2 | 6 | 4 | -9 | 8
- CCCCCCn1c(O)c(C=Nc2ccccc2N2CCOCC2)c(=O)[nH]c1=S
→ 11 | 0.9 | -3 | 0 | -3 | 9
- Oc1ccc(Br)cc1CN1CCN(c2ccccc2)CC1
→ 2 | -0.2 | 9 | -6 | -17 | -3
- NC(=O)c1ccc(N)nc1
→ . | -0.1 | 0 | 6 | -9 | 6
- CCOC(=O)c1c(-c2ccccc2)oc2ccc(OC(=O)N(C)C)cc12
→ 1 | 0.1 | 28 | 12 | -4 | 8
- C/C(=N\N1CCN(C)CC1)c1c(O)n(Cc2ccccc2)c(=O)[nH]c1=O
→ 8 | 0.5 | 53 | 10 | -18 | -2
- CN(C)c1ccc(C=C2C(=O)NC(=S)NC2=O)cc1
→ . | 0.6&-0.8 | -14 | 1 | -10 | 1

Shown tab-delimited: 4 of the compounds above.
canonical_smiles	TRPV1 PAM	TRPML1 ag	TRPML1 blocker	Six1-Eya2 inh	D2 potentiator	CtBP-E1A inh
O=C1CCN(C(=O)CCCn2c(=O)oc3ccccc32)CC1	3	-0.7	0	7	-2	6
COc1ccc(-c2nn(CCC#N)cc2C(=O)Nc2ccccc2)cc1OC	29	.	.	2	1	.
Cc1cc(N(CCCl)CCCl)ccc1C=NNC(=O)Cc1cc(=O)oc2cc(O)ccc12	.	4.4	34	-18	-13	-15
CN(C)C1(CNC(=O)Cc2ccccc2F)CCCCC1	-14	0.3	4	8	5	3

The results go on.
Second line of a record – TRPV1 PAM | TRPML1 ag | TRPML1 blocker | Six1-Eya2 inh | D2 potentiator | CtBP-E1A inh
- CC(C)n1c(O)c(C=NCc2cccnc2)c(=O)[nH]c1=S
→ . | 0.1 | -2 | -8 | -2 | .
- OCc1cnc[nH]1
→ 4 | -0.2 | -14 | 2 | -3 | 5
- COC(=O)C1=C(c2c(C)noc2C)C[C@@H]2CC[C@H]1N2C(=O)NCCOc1ccccc1
→ -15 | -0.2 | 5 | 7 | 8 | .
- Clc1cccc(C2NCc3ccccc3-n3cccc32)c1 (stereo not drawn)
→ 10 | . | . | -10 | -9 | -2
- COc1ccc(CCNCc2ccncc2)cc1OC
→ 2 | 0.5 | -2 | 4 | -3 | 5
- COc1ccc(-n2c(-c3ccc(C)cc3)nc3ccccc3c2=O)cc1
→ . | -0.7 | 21 | -1 | 2 | 3
- Cc1nc(CCl)cc(=O)[nH]1
→ 0 | -0.1 | 19 | -3 | -1 | 5
- COC(=O)C1=C(c2ccc3ccccc3c2)C[C@@H]2CC[C@H]1N2C(=O)NCc1ccc(F)cc1
→ 6 | 0.3 | -10 | -8 | -12 | -3
- S=P(N1CCOCC1)(N1CC1)N1CC1
→ . | 0.8 | 1 | 6 | 1 | 3
- CNC(=S)N1CC2CC(C1)c1cccc(=O)n1C2 (stereo not drawn)
→ 0 | 0.7 | -8 | -7 | -6 | -1
- Cc1c(C(c2ccc(F)cc2)c2c(O)c3ccccc3oc2=O)c(=O)n(-c2ccccc2)n1C (stereo not drawn)
→ 9 | 2.6&-0.8 | -21&32 | -5 | 1 | -1
